Source: PubChem BioAssay (National Center for Advancing Translational Sciences (NCATS))
VACV mCherry inh: vaccinia inhibition (mCherry reporter). Vaccinia virus mCherry reporter infection, fluorescence; about a quarter of the inactives have no number. Potency, µM (titrated, usually from 36.5 µM), inactives show top-dose activity change, negative = inhibition, actives largely listed as inhibitors. 310,000 compounds, 0.63% hits; active = well fitted inhibition curve with a large enough effect; inconclusive = small, poorly fitted or top-dose-only effect; inactive = no such curve, though single readings can be large or run the other way; tested in A549 cells; note: nearly all actives have a fitted effect of over 35% in size; inactives centre near -10
VACV Venus inh: vaccinia inhibition (Venus reporter); Vaccinia virus Venus reporter expression, fluorescence; Potency, µM (series often up to 36.5 µM), for inactives: at the highest dose activity change, negative = inhibition, actives largely listed as inhibitors; 330,000 compounds, 0.46% hits; AID 720580; active means well fitted inhibition curve with a large enough effect; inconclusive means small, poorly fitted or top-dose-only effect; inactive means no such curve, though single readings can be large or run the other way; tested in A549 cells; note: nearly all actives have a fitted effect of over 30% in size; inactives centre near -10
The depositor's hits bear a star; & = joins results of further samples; [ ] = dose if it differs, or a comment. % is set by controls: 0 for no effect and ±100 for the full control effect; potency is the fitted concentration of half-maximal effect.

Screening Cc1c(NC(=O)c2ccc(-c3ccc(F)cc3)o2)cccc1-c1nc2ncccc2o1 returned VACV mCherry inh -27% and VACV Venus inh -16%.
Screening COc1ccccc1/C=C/CN1CCN(Cc2ccc(C)o2)C(CCO)C1 (configuration not stated) returned VACV mCherry inh -18% and VACV Venus inh -18%.
`CCCCNC(=O)C[C@@H]1C[C@@]2(C(=O)OC)CC(C)(C)CC=C2N(Cc2cccc3ccccc23)C1=O` gave VACV mCherry inh inconclusive and VACV Venus inh -24%.
`CCc1sc(NC(=O)c2cc3ccccc3oc2=O)nc1-c1cccs1` gave VACV mCherry inh -10% and VACV Venus inh -4%.
Screening COc1cc(OC)c(NC2(c3ccccc3)C(=O)c3ccccc3C2=O)cc1Cl returned VACV mCherry inh 0% and VACV Venus inh 6%.
Screening COC(=O)C(NC(=O)c1c(C)nn(C)c1Cl)c1ccccc1 (configuration not stated) returned VACV mCherry inh inactive and VACV Venus inh -6%.
Screening Cc1ccsc1/C=N/n1c(-c2ccccn2)n[nH]c1=S returned VACV mCherry inh -7% and VACV Venus inh 1%.
COc1ccccc1N1CCN(C(=O)c2onc(C)c2Cl)CC1 was read as VACV mCherry inh -7% and VACV Venus inh -16%.
`COc1ccc2sc(NC(=O)c3ccco3)nc2c1` gave VACV mCherry inh -28% and VACV Venus inh -13%.
For CCOC(=O)CNC(=O)c1nn(-c2ccc(OCC)cc2)c(=O)c2ccccc12 the results were VACV Venus inh -16%.
Screening COc1ccc(OCC2CNC(=O)O2)cc1 (configuration not stated) returned VACV mCherry inh inactive and VACV Venus inh -11%.
For O=c1ccc2c(O)c3ccoc3cc2o1 the results were VACV mCherry inh -11% and VACV Venus inh -13%&-6%.
Screening CCOc1ccc(NC(=O)CN(C)C(=O)c2cn3ccccc3n2)cc1OCC returned VACV mCherry inh -19% and VACV Venus inh -17%.
`Cc1cccc(S(=O)(=O)NCCNS(=O)(=O)c2cccc(C)c2)c1` gave VACV mCherry inh inactive and VACV Venus inh -3%.
Screening COc1ccc(CNC(=O)c2ccc3ccccc3n2)cc1OC returned VACV mCherry inh -27% and VACV Venus inh -14%.
For O=S(=O)(c1ccccc1)C1CN1c1c(F)c(F)c(F)c(F)c1F (configuration not stated) the results were VACV mCherry inh -17% and VACV Venus inh -4%.
For CN(C(=O)c1c(Cl)cnn1C)C12CC3CC(CC(C3)C1)C2 the results were VACV mCherry inh -10% and VACV Venus inh -1%.
Screening O=C(COc1ccccc1Cl)NCC1(N2CCOCC2)CCCCC1 returned VACV mCherry inh -24% and VACV Venus inh -21%.
For CC1Cc2cc(/C=C3/SC(=S)NC3=O)ccc2O1 (configuration not stated) the results were VACV mCherry inh -16%[7.34 µM] and VACV Venus inh -27%[7.34 µM].
CCCCN1C=CC(=C2C(=O)c3ccccc3C2=O)C=C1 was read as VACV mCherry inh inactive and VACV Venus inh -23%.

Continued (3 carried over from the part before).
Screening O=C(COc1ccccc1Cl)NCC1(N2CCOCC2)CCCCC1 returned VACV mCherry inh -24% and VACV Venus inh -21%.
For CC1Cc2cc(/C=C3/SC(=S)NC3=O)ccc2O1 (configuration not stated) the results were VACV mCherry inh -16%[7.34 µM] and VACV Venus inh -27%[7.34 µM].
CCCCN1C=CC(=C2C(=O)c3ccccc3C2=O)C=C1 was read as VACV mCherry inh inactive and VACV Venus inh -23%.
Screening COc1ccccc1N1CCN(C(=O)C2CCN(S(=O)(=O)c3ccc(C)cc3)CC2)CC1 returned VACV mCherry inh -17% and VACV Venus inh -24%.
`CC(Oc1cc2oc(=O)c3c(c2cc1Cl)CCC3)C(=O)NCc1ccncc1` (configuration not stated) gave VACV mCherry inh -7% and VACV Venus inh -14%.
COc1ccc(CN2C(=O)C(Cc3ccccc3)Nc3ncnc(N4CCN(c5ccccc5)CC4)c32)cc1 (configuration not stated) was read as VACV mCherry inh -22% and VACV Venus inh -29%.
CCn1c(SCc2nc3ccccc3[nH]2)nnc1-c1cccs1 was read as VACV mCherry inh -2% and VACV Venus inh -11%.
C[C@H](NC(=O)OC(C)(C)C)C(=O)N/N=C/c1cccc2nccnc12 was read as VACV mCherry inh -13% and VACV Venus inh 3%.
For CC1=NN(c2ccc(Cl)cc2)C(=O)C1C(c1cccc(O)c1)c1c(C)[nH]n(-c2ccc(Cl)cc2)c1=O (configuration not stated) the results were VACV mCherry inh inconclusive and VACV Venus inh -29%.
For CC(OC(=O)c1cccc([N+](=O)[O-])c1)C(=O)N1CCc2ccccc21 (configuration not stated) the results were VACV mCherry inh -12% and VACV Venus inh 1%.
Cc1cc2c(cc1C)[n+](C)cn2CC(O)COCC1CC=CCC1 (configuration not stated) was read as VACV mCherry inh inactive and VACV Venus inh -7%.
C[C@@H]1CN([C@@H](C)CO)C(=O)CCCn2nncc2CO[C@H]1CN(C)C(=O)c1ccc2ccn(C)c2c1 was read as VACV mCherry inh inactive and VACV Venus inh -10%.
Screening CCOc1ccc2c(c1)c(=O)c(S(=O)(=O)c1ccc(CC)cc1)cn2C returned VACV mCherry inh -21% and VACV Venus inh -13%.
For Cc1ccc(S(=O)(=O)NCCSc2ccccc2)cc1[N+](=O)[O-] the results were VACV mCherry inh -21% and VACV Venus inh -4%.
For O=C(CCS(=O)(=O)c1cc(Br)cc2c1N(C(=O)C1CC1)CC2)Nc1ccc(Br)cc1F the results were VACV mCherry inh -13% and VACV Venus inh -12%.
Screening O=C1c2ccccc2C(c2nnnn2Cc2ccccc2)N1CCCn1ccnc1 (configuration not stated) returned VACV mCherry inh 3% and VACV Venus inh 1%.
Screening COc1ccccc1-c1ccc(SCc2cccc(C)c2)nn1 returned VACV mCherry inh 0% and VACV Venus inh -4%.
`COc1ccc(NC(=O)CC2CCCCC2)cc1OC` gave VACV mCherry inh -12% and VACV Venus inh 1%.
CCOc1cc(N2CCOCC2)c(OCC)cc1NC(C)C(=O)N1CCC(C)CC1 (configuration not stated) was read as VACV mCherry inh inactive and VACV Venus inh -16%.
Screening COc1ccc(-c2noc(-c3ccc(Cl)cc3[N+](=O)[O-])n2)cc1OC returned VACV mCherry inh inactive and VACV Venus inh -16%.
For CC(=O)Nc1ccc2ccccc2c1 the results were VACV mCherry inh -12% and VACV Venus inh -3%.
Cc1ccccc1N/C(SCc1ccc(Cl)cc1)=C(/C#N)C(N)=O was read as VACV mCherry inh inconclusive and VACV Venus inh inconclusive.
`Cc1ccc(/C=C(\NC(=O)c2ccccc2)C(=O)NCCc2ccccn2)o1` gave VACV mCherry inh 0% and VACV Venus inh -3%.
`Cc1ccc(S(=O)(=O)N2CCN(CC(=O)NC3CCCc4ccccc43)CC2)cc1C` (configuration not stated) gave VACV mCherry inh -23% and VACV Venus inh -5%.
CC(=O)N(CCC(c1ccco1)C(C)C)Cc1ccc(Cl)cc1 (configuration not stated) was read as VACV mCherry inh -11% and VACV Venus inh -6%.
Screening Cc1ccc(/C=C/C(=O)NN2CCN(C)CC2)cc1 returned VACV mCherry inh 2% and VACV Venus inh 20%.
COc1ccc(-c2cccc(-c3cc(=O)oc4cc(OC)c(OC)c(OC)c34)c2)cc1 was read as VACV mCherry inh -10% and VACV Venus inh inconclusive.
For COc1ccccc1OCCNC(=O)c1cccc(S(=O)(=O)N2CC(C)OC(C)C2)c1 (configuration not stated) the results were VACV mCherry inh inactive and VACV Venus inh -8%.
COc1ccc(N(CC(=O)NCCc2cccc(C)c2)S(=O)(=O)c2c(C)nn(C)c2C)cc1 was read as VACV mCherry inh -6% and VACV Venus inh 6%.
Screening O=C(Nc1cc(C(F)(F)F)ccc1N1CCOCC1)c1cccc(F)c1 returned VACV Venus inh -13%.
`CC1(C)CC(=O)C=C(NCCN2CCN(C(=S)Nc3ccccc3)CC2)C1` gave VACV mCherry inh -13% and VACV Venus inh -7%.
For COCCn1c(SCc2cccnc2)nnc1-c1ccco1 the results were VACV mCherry inh 0% and VACV Venus inh 11%.
`COC(=O)C1=C(C)N(CCCC(=O)O)C(=O)NC1c1ccc(Cl)cc1` (configuration not stated) gave VACV mCherry inh inactive and VACV Venus inh -11%.
`Cc1cc(C)cc(N2CC(c3nc4ccccc4n3C)CC2=O)c1` (configuration not stated) gave VACV mCherry inh 6% and VACV Venus inh -8%.
For CCCCN(CC)CCCNC(=S)Nc1ccc2nc(N3CCN(CC)CC3)cc(C)c2c1 the results were VACV mCherry inh -19% and VACV Venus inh -17%.
For Cc1cnc(NC(=O)CC2CCCC2)s1 the results were VACV mCherry inh inactive and VACV Venus inh -11%.
For O=C(CCN1C(=O)c2ccccc2S1(=O)=O)Nc1cccc(F)c1 the results were VACV mCherry inh -2% and VACV Venus inh 5%.
O=C(c1cccs1)N1CCN(Cc2cccc([N+](=O)[O-])c2)CC1 was read as VACV mCherry inh -15% and VACV Venus inh -13%.
For CCCn1c(=O)c2sccc2n2c(CCCC(=O)NC3CCC(C)CC3)nnc12 (configuration not stated) the results were VACV mCherry inh -7% and VACV Venus inh -13%.
Screening O=C(Nc1ccc(Br)cc1)Nc1ccccc1F returned VACV mCherry inh inactive and VACV Venus inh -18%.
CCc1c(-c2ccccc2)ncn1Cc1cccc(-c2ccccc2)c1 was read as VACV mCherry inh inconclusive and VACV Venus inh -23%.
COC(=O)Cc1[nH]n(-c2ccccc2)c(=O)c1C(C)=Nc1ccccc1 was read as VACV mCherry inh -7% and VACV Venus inh -2%.
COc1cccc2c(=O)ccoc12 was read as VACV mCherry inh -14%[1.46 µM] and VACV Venus inh -11%.

Reprinted at random: 5 compounds from above
COc1ccc(-c2cccc(-c3cc(=O)oc4cc(OC)c(OC)c(OC)c34)c2)cc1 was read as VACV mCherry inh -10% and VACV Venus inh inconclusive.
CCn1c(SCc2nc3ccccc3[nH]2)nnc1-c1cccs1 was read as VACV mCherry inh -2% and VACV Venus inh -11%.
C[C@H](NC(=O)OC(C)(C)C)C(=O)N/N=C/c1cccc2nccnc12 was read as VACV mCherry inh -13% and VACV Venus inh 3%.
Screening CCOc1ccc2c(c1)c(=O)c(S(=O)(=O)c1ccc(CC)cc1)cn2C returned VACV mCherry inh -21% and VACV Venus inh -13%.
Screening O=C(COc1ccccc1Cl)NCC1(N2CCOCC2)CCCCC1 returned VACV mCherry inh -24% and VACV Venus inh -21%.

Additional structures follow.
CCc1ccc(/C=C2\Oc3c(ccc(O)c3CN3CCN(CCO)CC3)C2=O)cc1 was read as VACV mCherry inh -4% and VACV Venus inh 2%.
For Cc1ccc(OCCSc2nnc(-c3cccs3)o2)cc1Cl the results were VACV mCherry inh -14% and VACV Venus inh inconclusive.
COc1ccc(NC(=O)c2csc(Cc3ccccc3)n2)cc1 was read as VACV mCherry inh -19% and VACV Venus inh -18%.
Cc1ccc(-c2nc(S(=O)(=O)c3ccc(Cl)cc3)c(N3CCCCC3)o2)cc1 was read as VACV mCherry inh -17% and VACV Venus inh -7%.
For O=C(NCCCn1ccnc1)/C(=C/c1ccc(Cl)cc1)NC(=O)c1ccccc1 the results were VACV mCherry inh 8% and VACV Venus inh 1%.
COc1cc(NC(=O)CSc2nnnn2C2CCCC2)cc(OC)c1 was read as VACV mCherry inh -19% and VACV Venus inh -11%.
CC(=O)N1N=C(c2ccc(C)o2)CC1c1cccc(F)c1 (configuration not stated) was read as VACV mCherry inh -29% and VACV Venus inh -8%.
`C[C@H](NCCc1ccc(O)cc1)[C@H](O)c1ccc(O)cc1` gave VACV mCherry inh -11% and VACV Venus inh 2%.
For CC1CCN(C(=S)c2cn(Cc3ccc(F)cc3)c3ccccc23)CC1 the results were VACV mCherry inh inactive and VACV Venus inh -19%.
`NC(=O)NC(=O)CSc1ccccc1` gave VACV mCherry inh -2% and VACV Venus inh -4%.
Screening CN(C)N1C(N)=C(C#N)C(c2ccsc2)C2=C1CC(C)(C)CC2=O (configuration not stated) returned VACV mCherry inh inactive and VACV Venus inh -15%.
O=C(CSc1ccc(-c2cccnc2)nn1)Nc1ccc(F)c(F)c1 was read as VACV mCherry inh inconclusive and VACV Venus inh -15%.
Screening CCN(CC)c1ccc(/C=N/NC(=O)CCC(=O)NCc2ccccc2)c(O)c1 returned VACV mCherry inh 10µM* and VACV Venus inh inconclusive.
O=C(NCc1ccccc1)C(c1ccc(C(F)(F)F)cc1)n1c(=O)c(-c2ccccc2)nc2ccccc21 (configuration not stated) was read as VACV mCherry inh -6% and VACV Venus inh inconclusive.
Cc1ccc(C(=O)O/N=C(\N)c2cccnc2)cc1[N+](=O)[O-] was read as VACV mCherry inh -23% and VACV Venus inh -5%.
For CCCn1c(=O)[nH]c(=O)c2c(C(=O)OCC)cc(-c3cccs3)nc21 the results were VACV mCherry inh -22% and VACV Venus inh -28%.
Screening O=C(O)CN1C(=O)CSC1=S returned VACV mCherry inh 152%[activator] and VACV Venus inh 394%[activator].
Screening CC(C)c1ccc(/C=N/NC(=O)C(=O)NCCCN2CCOCC2)cc1 returned VACV mCherry inh inactive and VACV Venus inh -19%.
`COc1cccc(CNc2nc3ccccc3n2C)c1O` gave VACV mCherry inh -24% and VACV Venus inh -12%.
`Cc1ccc(NC(=O)C2(N(C(=O)Cn3nnnc3N)c3ccc(C)cc3)CCCCC2)cc1` gave VACV mCherry inh -22% and VACV Venus inh -18%.
For Clc1ccc(CNc2nnnn2-c2ccccc2)c(Cl)c1 the results were VACV mCherry inh -17% and VACV Venus inh -11%.
`c1ccc(C2CC(c3cccs3)Nc3nnnn32)cc1` (configuration not stated) gave VACV mCherry inh 11% and VACV Venus inh 10%.
